Vaccinia inh = Vaccinia orthopox stage-specific inhibition; activity change (mCherry), % (no concentration beside the values); 0.01% of 89,000 active; Vaccinia-infected cells, mCherry/Venus stage reporter fluorescence; hits give low values; some inactives read as strong as hits;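 active = mCherry past -33% and 40 or more points under the early reporter, replicates agreeing; inconclusive = past -33% without that gap or agreement; tested in A549 cells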;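 note: scaled between vehicle wells and reference inhibitor wells; 23 nL library stock went into each well; one replicate is shown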
Vaccinia inh Venus = second read-out of Vaccinia inh, no call of its own (marks repeat the call); activity change (Venus), %; measured here: Venus reporter, other viral stage;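 negative = less Venus signal; first of two replicates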
The depositor's hits bear a star; ? = inconclusive; nt = no result given.

mol	Vaccinia inh	Vaccinia inh Venus
CCC(=O)N(C)C[C@@H]1Oc2cc(C#CCC3CCCC3)ccc2S(=O)(=O)N([C@@H](C)CO)C[C@@H]1C	?	nt
C/C=C/c1ccc2c(c1)O[C@@H](CN(C)C(=O)NC1CCCC1)[C@@H](C)CN([C@@H](C)CO)S2(=O)=O	-7.7	-8.7
COc1ccccc1-c1ccc2c(c1)[C@H]1[C@H](CCN1C(=O)C1CCOCC1)[C@H](CO)N2	-23.0	-9.5
Cc1ccccc1-c1cnc2c(c1)C(=O)N([C@H](C)CO)C[C@H](C)[C@@H](CN(C)CC1CCCC1)O2	-12.1	-5.6
C[C@@H]1CCCCO[C@@H](CN(C)S(=O)(=O)c2cccs2)[C@H](C)CN([C@H](C)CO)C(=O)c2cc(NS(=O)(=O)c3cccs3)ccc2O1	?	nt
C[C@H]1CN([C@@H](C)CO)C(=O)c2cc(/C=C/c3ccccc3)cnc2O[C@@H]1CN(C)C(=O)Cc1ccccn1	-1.4	-2.6
CC(=O)N1CCCCN2[C@@H](CO)[C@@H](c3ccc(-c4cccc(C(=O)N(C)C)c4)cc3)[C@@H]2C1	32.6	12.8
CC(C)NC(=O)Nc1ccc2c(c1)C(=O)N([C@H](C)CO)C[C@H](C)[C@H](CN(C)S(C)(=O)=O)O2	13.1	21.4
COc1cccc(-c2ccc3n(c2=O)C[C@@H]2[C@@H](CO)[C@H](C(=O)N4CCOCC4)N[C@H]32)c1	-10.4	7.8
O=C(C1=C[C@@H](c2csc3ccccc23)C[C@@H](OCCCCO)O1)N1CCCCCCC1	-3.4	-2.7
CO[C@H]1CN(C)C(=O)c2cc(NC(=O)c3ccc4c(c3)OCO4)ccc2OC[C@H](C)NC[C@H]1C	-1.7	-4.2
C[C@@H]1CN([C@@H](C)CO)S(=O)(=O)c2ccc(Br)cc2O[C@H]1CN(C)S(=O)(=O)c1ccc(F)cc1	-13.0	-17.5

Sorted by molar mass (smallest number first): 4 of the compounds above
mol	Vaccinia inh	Vaccinia inh Venus
COc1ccccc1-c1ccc2c(c1)[C@H]1[C@H](CCN1C(=O)C1CCOCC1)[C@H](CO)N2	-23.0	-9.5
Cc1ccccc1-c1cnc2c(c1)C(=O)N([C@H](C)CO)C[C@H](C)[C@@H](CN(C)CC1CCCC1)O2	-12.1	-5.6
CC(C)NC(=O)Nc1ccc2c(c1)C(=O)N([C@H](C)CO)C[C@H](C)[C@H](CN(C)S(C)(=O)=O)O2	13.1	21.4
C/C=C/c1ccc2c(c1)O[C@@H](CN(C)C(=O)NC1CCCC1)[C@@H](C)CN([C@@H](C)CO)S2(=O)=O	-7.7	-8.7

Following part:
mol	Vaccinia inh	Vaccinia inh Venus
COc1ccccc1S(=O)(=O)N[C@H]1CC[C@@H](CCNC(=O)C2CCCC2)O[C@H]1CO	-5.1	11.3
CN1[C@@H]2Cn3c(ccc(-c4ccncc4)c3=O)[C@H]1[C@@H](C(=O)N1CCC(Cc3ccccc3)CC1)[C@@H]2CO	9.0	-1.5
C/C=C/c1ccc2c(c1)O[C@@H](CN(C)C(=O)c1cccc(F)c1)[C@@H](C)CN([C@@H](C)CO)S2(=O)=O	?	nt
O=C(C[C@H]1C[C@H]2c3cc(NC(=O)Nc4ccccc4)ccc3O[C@H]2[C@@H](CO)O1)NC1CCCC1	1.5	2.2
CCCNC(=O)N1[C@H](CO)[C@H](c2ccccc2C2=CCCCC2)[C@@H]1C#N	-2.7	-0.5
COc1ccc(NC(=O)Nc2ccc3c(c2)CC(=O)N([C@@H](C)CO)C[C@H](C)[C@@H](CN(C)C(=O)Nc2ccc(OC)cc2)O3)cc1	-6.7	4.0
C[C@@H]1CCCCO[C@H](CN(C)S(=O)(=O)c2ccc(Cl)cc2)[C@@H](C)CN([C@@H](C)CO)C(=O)c2cc(NC(=O)c3ccncc3)ccc2O1	-28.1	-22.3
Cc1noc(C)c1S(=O)(=O)N(C)C[C@H]1Oc2ccc(NS(=O)(=O)c3cccs3)cc2C(=O)N([C@H](C)CO)C[C@H]1C	-0.3	-1.4
Cc1cccc(-c2ccc([C@@H]3[C@@H](CO)N4CCCCN(C(=O)NC(C)C)C[C@H]34)cc2)c1	-3.7	-36.1
O=C(C[C@@H]1C[C@@H]2c3cc(NC(=O)NC4CCCCC4)ccc3O[C@@H]2[C@H](CO)O1)NCc1ccccn1	1.9	0.2
CN1CCN(C(=O)C[C@H]2CC[C@@H]3[C@@H](COc4ccc(NC(=O)C5CCOCC5)cc4C(=O)N3C)O2)CC1	3.3	-2.1
COc1ccc2c3c(n(C)c2c1)[C@H](CO)N(Cc1ccncc1)CC31CCN(C(=O)Nc2cccc(F)c2)CC1	-22.1	-18.3
Cc1cc(C(=O)Nc2cccc3c2O[C@@H](CN(C)S(=O)(=O)c2cn(C)cn2)[C@H](C)CN([C@@H](C)CO)C3=O)n(C)n1	22.1	17.7
CCCC#Cc1ccc([C@@H]2[C@H]3CN(C(=O)Nc4cc(F)ccc4F)CC(=O)N3[C@H]2CO)cc1	-23.0	-15.4
C[C@@H]1CN([C@H](C)CO)C(=O)c2cc(NS(=O)(=O)c3cn(C)cn3)ccc2O[C@@H](C)CCCCO[C@@H]1CN(C)S(=O)(=O)c1ccc(Cl)cc1	15.2	2.9
CO[C@H]1CN(C)C(=O)c2cc(NC(=O)Nc3ccccc3)ccc2OC[C@H](C)N(C(=O)CN(C)C)C[C@H]1C	17.6	3.6
CCCNC(=O)Nc1ccc2c(c1)C(=O)N(C)C[C@H](OC)[C@@H](C)CN(Cc1cncnc1)[C@H](C)CO2	9.6	5.3
COc1ccc(NC(=O)Nc2ccc3c(c2)C(=O)N([C@@H](C)CO)C[C@H](C)[C@H](CN(C)CC2CCCCC2)OCCCC[C@@H](C)O3)cc1	?	nt
COc1cccc(NC(=O)N2C[C@H](O)COC[C@H]3O[C@H](CC(=O)NCCCN4CCOCC4)CC[C@@H]32)c1	17.6	9.8
COc1ccc(CNC(=O)C[C@H]2CC[C@@H]3[C@H](COc4ccc(NC(C)=O)cc4C(=O)N3C)O2)cc1	4.2	11.1
C[C@@H]1CN([C@H](C)CO)S(=O)(=O)c2ccc(C#CCN(C)C)cc2O[C@@H]1CN(C)CC1CC1	26.0	20.9
COc1cccc(-c2ccc([C@H]3[C@H](CO)N(C(C)=O)C34CN(C(C)=O)C4)cc2)c1	23.9	24.0
COCC(=O)N(C)C[C@H]1Oc2ncc(C#Cc3ccccc3)cc2C(=O)N([C@H](C)CO)C[C@@H]1C	8.2	11.5
CC(C)NC(=O)NCC[C@@H]1CC[C@H](NS(=O)(=O)c2ccc(-c3ccccc3)cc2)[C@@H](CO)O1	-8.6	-0.2
CN(C)CC(=O)N1CCCCN2[C@H](CO)[C@H](c3ccc(-c4ccccc4)cc3)[C@H]2C1	-15.6	-12.4
CCNC(=O)Nc1ccc2c(c1)C(=O)N(C)[C@H]1CC[C@@H](CC(=O)NCC3CCCCC3)O[C@H]1CO2	14.3	12.6
CC(C)(C)[C@@H]1C=C(C(=O)N2CCN(Cc3ccccc3)CC2)O[C@H](OCc2ccc(CO)cc2)C1	11.8	12.9
CO[C@H]1CN(C)C(=O)c2ccc(NS(C)(=O)=O)cc2OC[C@@H](C)N(Cc2ccccc2)C[C@@H]1C	-8.1	-8.8
O=C(C[C@H]1CC[C@@H](NC(=O)Nc2ccccc2)[C@H](CO)O1)NCc1cccc(F)c1	4.6	-1.5
O=C(NC1CCCC1)[C@@H]1[C@@H](CO)[C@@H]2Cn3c(ccc(-c4cccnc4)c3=O)[C@@H]2N1CCc1ccccc1	-11.6	-9.5
CCC(=O)N1[C@@H](CO)[C@@H]2c3ccccc3N(S(=O)(=O)c3ccccc3)C[C@@H]21	12.4	10.7
Cc1ccc(S(=O)(=O)Nc2ccc3c(c2)C(=O)N([C@H](C)CO)C[C@@H](C)[C@@H](CN(C)CC2CC2)O3)cc1	10.8	1.3
COc1ccc(-c2ccc3c(c2)O[C@H](CN(C)C(=O)Nc2ccccc2F)[C@H](C)CN([C@H](C)CO)S3(=O)=O)cc1	?	nt
CS(=O)(=O)N1[C@H](C#N)[C@H](c2ccc(-c3ccccc3F)cc2)[C@@H]1CO	-10.1	-7.4
CCNC(=O)C[C@H]1C=C[C@@H](NC(=O)C2CC2)[C@H](CO)O1	0.9	-0.1
C[C@@H]1CN([C@H](C)CO)C(=O)c2cc(C#CC3CCCC3)cnc2O[C@@H]1CN(C)C(=O)Nc1ccccc1	2.0	-10.4

(list continues)
Every second line gives: Vaccinia inh | Vaccinia inh Venus
COc1cccc(S(=O)(=O)Nc2ccc3c(c2)OC[C@H](C)NC[C@@H](C)[C@H](OC)CN(C)C3=O)c1
    11.9 | 11.1
C[C@@H]1CCCCO[C@@H](CN(C)C)[C@H](C)CN([C@@H](C)CO)C(=O)c2cc(NC(=O)c3ccccc3)ccc2O1
    -8.0 | -3.6
Cc1ccccc1S(=O)(=O)NCC[C@@H]1CC[C@H](NC(=O)Nc2cccc(Cl)c2)[C@@H](CO)O1
    -26.7 | -15.6
O=C(C[C@H]1CC[C@H]2[C@@H](COC[C@H](O)CN2Cc2nccs2)O1)NCc1ccc(Cl)cc1
    -1.8 | -1.8
O=C(NCc1ccc(F)cc1)[C@@H]1[C@@H](CO)[C@@H]2Cn3c(cccc3=O)[C@H]1N2Cc1cccnc1
    8.9 | 5.1
CO[C@@H]1CN(C)C(=O)c2cc(NC(C)=O)ccc2OC[C@@H](C)N(CCc2ccccc2)C[C@@H]1C
    1.2 | -1.3
C[C@H](CO)N1C[C@H](C)[C@H](CN(C)C(=O)Nc2cccc3ccccc23)Oc2ccc(NC(=O)Cc3ccccc3)cc2C1=O
    24.4 | 20.3
CO[C@H]1CN(C)C(=O)c2ccc(NC(C)=O)cc2OC[C@H](C)N(C(=O)CN2CCOCC2)C[C@H]1C
    -0.9 | -1.0
C/C=C/c1ccc([C@H]2[C@@H](CN(C)C(=O)C3CC3)N(C(=O)C3CC3)[C@H]2CO)cc1
    -17.2 | -7.2
CCCNC(=O)N(C)C[C@H]1N[C@@H](CO)[C@@H]1c1ccc(C2=CCCCC2)cc1
    ? | nt
Cc1ccccc1S(=O)(=O)N(C)C[C@@H]1OCc2cnnn2CCCC(=O)N([C@@H](C)CO)C[C@H]1C
    -2.3 | 5.2
CCCNC(=O)N1CC2(CCN(C(=O)c3cnccn3)CC2)c2c([nH]c3cc(OC)ccc23)[C@H]1CO
    8.5 | 5.1
O=C(NCc1ccc(F)cc1)[C@@H]1N[C@@H]2c3ccc(-c4ccccc4)c(=O)n3C[C@@H]2[C@H]1CO
    20.4 | 11.6
C[C@H](CO)N1C[C@H](C)[C@H](CN(C)S(=O)(=O)c2cccs2)OCCCC[C@H](C)Oc2ccc(NC(=O)CCCN(C)C)cc2C1=O
    18.2 | -0.9
C[C@@H]1CN([C@H](C)CO)C(=O)c2cc(NC(=O)NC3CCCCC3)ccc2O[C@@H]1CN(C)S(=O)(=O)c1cn(C)cn1
    10.9 | 7.0
COC(=O)[C@H]1[C@H](CO)[C@H]2Cn3c(cccc3=O)[C@H]2N1CC1CCOCC1
    4.9 | 48.3
CC(C)NC(=O)Nc1ccc2c(c1)C(=O)N([C@@H](C)CO)C[C@@H](C)[C@H](CN(C)Cc1ccc(C(F)(F)F)cc1)OCCCC[C@H](C)O2
    ? | nt
O=C(c1ccc2c(c1)OCO2)N1CC[C@@H]2[C@H]1c1cc(-c3ccc(F)cc3)ccc1N[C@@H]2CO
    4.9 | 4.6
C[C@@H]1CN([C@H](C)CO)C(=O)Cc2cc(NC(=O)Nc3ccc(F)cc3)ccc2O[C@@H]1CN(C)C(=O)Nc1ccc(F)cc1
    8.3 | 5.1
CN1C(=O)c2cc(NC(=O)Cc3cccs3)ccc2OC[C@@H]2O[C@@H](CC(=O)NCC3CCCCC3)CC[C@@H]21
    -9.5 | -5.5
Cc1noc(C)c1NC(=O)N(C)C[C@@H]1Oc2ccc(NS(=O)(=O)c3ccccc3)cc2CC(=O)N([C@H](C)CO)C[C@@H]1C
    27.3 | 11.0
CO[C@@H]1CN(C)C(=O)c2ccc(NC(=O)Nc3c(C)noc3C)cc2OC[C@H](C)N(CC2CC2)C[C@H]1C
    8.3 | 5.0
COc1ccc(NC(=O)Nc2cccc3c2O[C@@H](CN(C)Cc2ccc(C(=O)O)cc2)[C@@H](C)CN([C@@H](C)CO)C3=O)cc1
    7.5 | 1.4
C[C@@H]1CN([C@H](C)CO)C(=O)c2cc(NS(=O)(=O)c3ccccc3)ccc2O[C@@H]1CN(C)C(=O)NC1CCCCC1
    1.2 | -3.0
COc1ccccc1S(=O)(=O)N[C@H]1C=C[C@@H](CC(=O)N2CCCCC2)O[C@@H]1CO
    19.6 | 16.1
COc1cccc(C(=O)Nc2ccc3c(c2)OC[C@H](C)N(CCc2ccccc2)C[C@@H](C)[C@H](OC)CN(C)C3=O)c1
    -27.1 | -16.1
C[C@@H]1CN([C@@H](C)CO)S(=O)(=O)c2ccc(C3=CCCC3)cc2O[C@@H]1CN(C)Cc1cncnc1
    4.2 | 0.0
CO[C@H]1CN(C)C(=O)c2cc(NS(=O)(=O)c3ccccc3C)ccc2OC[C@@H](C)N(S(C)(=O)=O)C[C@@H]1C
    28.7 | 17.2
Cc1ccc(S(=O)(=O)Nc2ccc3c(c2)C(=O)N([C@@H](C)CO)C[C@@H](C)[C@H](CN(C)C(=O)NC2CCCCC2)OCCCC[C@H](C)O3)cc1
    -23.0 | -23.3
C/C=C/c1cnc2c(c1)C(=O)N([C@@H](C)CO)C[C@@H](C)[C@@H](CN(C)CC1CCOCC1)O2
    12.3 | 11.5
O=C(c1cccc(F)c1)N1CCCCN2[C@H](C1)[C@@H](c1ccc(-c3ccncc3)cc1)[C@@H]2CO
    37.9 | 23.1
O=C(Cc1ccccn1)NCC[C@H]1CC[C@@H](NS(=O)(=O)c2ccc(F)cc2)[C@@H](CO)O1
    -7.7 | -2.1
C[C@@H]1CN([C@@H](C)CO)C(=O)c2cc(N(C)C)ccc2O[C@H]1CN(C)S(=O)(=O)c1ccccc1
    -0.1 | 0.5

Assay outcomes (PubChem BioAssay)

The list is partial; rates above refer to the full screens.
